# Compound activity deposited in PubChem by ICCB-Longwood Screening Facility, Harvard Medical School.
# AID504770 – E. coli YBA685 growth inhibition, screen for V. cholerae RctB inhibitors. 130,000 tested, 0.27% active. E. coli YBA685 rctB-dependent plasmid, OD600 growth, 3 h; stronger effect = lower value. z-score (no concentration beside the values);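 active = z-score under -2 on both plates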;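 also: wells of about 30 µL received 100 nL stock; score is relative to mean and SD of the test wells; the first replicate is given; strong numbers were not always called active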
# Ba CapD inh – blocks the Bacillus anthracis CapD enzyme; z-score (no concentration beside the values); purified CapD enzyme, fluorescence intensity read-out; stronger effect = lower value; some hits fall short of the stated cut; 140,000 tested, 0.23% active;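 active = z-score under -4 in either of two replicates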;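 also: stock transfer was 100 nL into about 40 µL; score is relative to mean and spread of the plate; one replicate is shown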
# Starred values were filed as active, the others as inactive; i = inactive; . = not tested or not shown; & = joins results of further samples.
molecule	AID504770	Ba CapD inh
CCCCSC1=NS(=O)(=O)c2ccccc2N1CCCC	0.25	-0.33
COc1ccc(-n2c(Sc3ncccn3)nc3ccccc3c2=O)cc1OC	-0.8	.
C#CCN=C(NC#N)SC	.	0.41
CCCCSc1nnc2n(Cc3ccc(OC)cc3)c(=O)c3c(n12)-c1ccccc1CC31CCCCC1	.	-0.515
CNc1nc(OC)cc(OC)n1	0.3	0.49
COc1cc(-c2nc3ccccc3c(=O)n2NC(=O)c2ccccc2Br)cc(OC)c1OC	.	-0.365
CC(Oc1ccc2oc3ccccc3c2c1)C(=O)NC(N)=O (stereo not given)	0.05	.
CNC(=O)CN(c1cccc2ccccc12)S(C)(=O)=O	-0.3	-0.13
Cc1ccc2cc(CCNC(=O)c3ccc(S(=O)(=O)N(C)C)cc3)c(=O)[nH]c2c1	0.05	3.99
Cc1ccccc1CN(CCO)Cc1ccccc1	0.45	-0.68
CCNc1nc(F)cc(F)n1	0.95	0.005
O=P(O)(c1ccccc1)c1ccccc1	-0.45	0.105
CC(C)C(=O)NN=C1CCC(=NNC(=O)C(C)C)CC1	0.1	-0.53
Cc1cc(NC(=O)NC(=O)c2cccs2)n[nH]1	0.65	0.795
C=CCOC(=O)C1=C(C)NC(=O)NC1c1cn(-c2ccccc2)nc1-c1ccc(Br)cc1 (stereo not given)	.	-0.025
CCOC(=O)C1=c2s/c(=C/c3ccccc3C)c(=O)n2C(N)=C(C#N)C1c1ccccc1C (stereo not given)	.	0.35
C[C@]12C[C@H](O)[C@H]3[C@@H](CCC4=CC(=O)CC[C@@]43C)[C@@H]1CC[C@@H]2C(=O)CO	.	-0.15
CCOC(=O)c1c(N/C=C(\C#N)c2nc(-c3cccs3)cs2)sc2c1CCC2	-0.55	0.44
CC(C)NC(=O)CSc1cc(-c2cccnc2)c2c(c1C#N)CCCC2	1.15	0.1
CCC(C)(NC(C)=O)C(=O)NC1CCCC1 (stereo not given)	-0.95	-0.565
CCC(Sc1nc(-c2ccccc2)c(-c2ccccc2)[nH]1)C(=O)O (stereo not given)	1.85	-0.425
CCOC(=O)c1cc(OC(=O)c2cccnc2)n(-c2ccccc2)n1	1.8	0.105
COc1ccc(C2C3=C(CC(C)(C)CC3=O)NC3=C2C(=O)CC(C)(C)C3)cc1OC	.	-0.865
CCOC(=O)/C(=N\O)C1=CSC2=NNC(C)(C)N12	-0.05	-2.18
Brc1ccc(-c2cnc(-c3ccccc3)o2)cc1	1.3	.
COC(=O)CNC(=O)c1cc2c(=O)[nH]c3ccccc3c2s1	-0.65	-1.9
CC1(C)CC(=O)C(C(C2=C(O)CC(C)(C)CC2=O)c2ccc(Cl)c([N+](=O)[O-])c2)C(=O)C1 (stereo not given)	.	-0.065
Cc1nc(SCCO)c2c3c(sc2n1)CCC3	0.65	0.055
Cc1cnc(C(=O)OCC(=O)N2CC3(C)CC2CC(C)(C)C3)cn1 (stereo not given)	1.1	.
COc1cc(/C=C2\CCC/C(=C\c3ccc(O)c(OC)c3)C2=O)ccc1O	.	-1.82
O=C(Nc1cccnc1)C(Cc1ccccc1)N1C(=O)c2ccccc2C1=O (stereo not given)	-0.7	.
CN(C)C(=O)CSc1ccccc1C(=O)OCC(=O)NC1(C#N)CCCC1	-0.45	.
COc1ccc(-c2[nH]c3ccccc3c2SCCNC(C)=O)cc1	-0.85	108
CC(=O)Nc1cccc(OCCCNS(=O)(=O)c2cn(C)c(C)n2)c1	-0.45	0.1
Cc1ccc(C(=O)NCc2ccc3c(c2)CCO3)cc1C	-0.15	0.425
COc1ccc(NC(=O)CCc2nc3cc(S(=O)(=O)N4CCCCC4)ccc3n2C)cn1	0.4	.
CCC1CCCCN1C(=O)c1cc2c(=O)oc3ccccc3c2s1 (stereo not given)	0.9	-0.17
COc1ccc(C(=O)NCc2nnc(SC(C)C)n2Cc2ccccc2)cc1	-0.45	-0.29
Cc1ccc(Cl)cc1NC(=O)c1cc(NC(=O)C2CC=CCC2C(=O)O)ccc1N1CCOCC1 (stereo not given)	-0.45	0.715
O=C(NCc1cccnc1)C1CC(c2ccccc2F)=NO1 (stereo not given)	-0.4	-0.025
Cc1ccc(-n2c(SCC(=O)c3ccc(Br)cc3)nc3[nH]ncc3c2=O)cc1Cl	.	-0.42
Cc1ccc(S(=O)(=O)CCN2CCC(C(F)(F)F)CC2)cc1	-0.35	-0.485
CN(C)S(=O)(=O)c1cccc(CN2C(=O)NC(CCc3ccccc3)C2=O)c1 (stereo not given)	1.45	.
CC(C)OCC(O)Cn1c2ccccc2c2ccccc21 (stereo not given)	-0.7	.
Cc1cc(C)n(-c2nc3ccccc3nc2NCC(C)O)n1 (stereo not given)	0.3	139
Cc1noc(C(=O)NC2CCCCC2)c1Cl	0.4	-0.455
COC(CNC(=O)c1ccc(CS(=O)(=O)Cc2ccc(Cl)cc2)o1)OC	0.6	-0.59
Nc1ccc(S(=O)(=O)NC2=NCCC2)cc1	0.5	.
O=C(NCC1COc2ccccc2O1)c1cn(Cc2ccc(F)cc2)nn1 (stereo not given)	0.35	.
COc1ccc(-c2nn(-c3ccccc3)cc2C2CC(c3cccs3)=NN2C(C)=O)cc1 (stereo not given)	.	0.485
CCCCn1c(-c2ccco2)nc2ccccc2c1=O	-0.35	.
COC(=O)COc1cccc(NC(=O)c2ccccc2F)c1	0.4	-0.325
O=C(COCc1cc(-c2ccc(F)cc2)on1)N(CC1CC=CCC1)CC1CCCO1 (stereo not given)	0.25	-0.58
CN(C)c1ccc(/C=N/NC(=O)c2cc(C3CC3)nc3ccccc23)cc1	.	-0.43
O=C(Sc1ccccc1)c1ccc(C(F)(F)F)cc1	0.45	10.4
NCCc1cnc[nH]1	-0.2	-0.29
CCOc1ccccc1C(=O)NC1CCCCCC1	-0.15	-0.1
O=S(=O)(Nc1cccc(CO)c1)c1cccs1	-0.65	-1.28
COC(=O)C(C)Sc1ncnc2sc(C)c(C)c12 (stereo not given)	-0.65	.
CC(=O)OC12CC3C(C1C(C)=NN2C(C)=O)C3(C)C (stereo not given)	.	-0.24

# Following part.
molecule	AID504770	Ba CapD inh
O=[N+]([O-])c1ccc(C2NCCc3c2[nH]c2ccccc32)cc1 (stereo not given)	.	0.23
O=C(OCC1CCCCN1Cc1ccc(C(F)(F)F)cc1)N1CC=C(n2c(=O)[nH]c3ccccc32)CC1 (stereo not given)	.	-0.3
CC(C)(CC(=O)O)CC(=O)N1CCCN(c2nccc(C(F)(F)F)n2)CC1	-0.1	0.855
COc1cc(Nc2nc(SCC(=O)NCc3ccco3)nc3ccccc23)cc(OC)c1	.	-0.59
O=C(O)C(Cc1cnc[nH]1)N1C(=O)c2ccccc2C1=O (stereo not given)	0.15	-0.335
O=C(CSc1nnc(Cc2cccs2)n1Cc1ccco1)Nc1ccc(Br)cc1	0.8	0.025
CCOC(=O)c1ccc(-c2ccc(/C=c3\sc4nc5ccccc5n4c3=O)o2)cc1	.	0.04
O=C1c2ccccc2C(=O)N1CCCCN1C(=O)c2ccccc2S1(=O)=O	-0.25	.
Cc1cc(C)cc(OCCCCn2cncn2)c1	-0.65	-0.585
CCCN1c2cccc3cccc(c23)S1(=O)=O	-1	.
O=C(NCc1ccc2c(c1)OCO2)C1CC2C=CC1C2 (stereo not given)	-0.1	.
COc1ccc(N=Cc2cn(-c3ccc(OC)cc3)cc2C=Nc2ccc(OC)cc2)cc1	-0.05	0.215
Cc1ccc(S(=O)(=O)NC(=O)c2cccn2C)cc1	-0.85	-0.525
O=S(=O)(Cc1ccc(F)cc1)Cc1noc(-c2ccno2)n1	-0.8	10.3
O=C(O)COc1ccc(Nc2ccccc2)cc1	-0.35	1.14
N#CCCNC(Cc1ccccc1)C(=O)O (stereo not given)	.	-0.115
CC(C)(C)OC(=O)Cn1ccc(=O)[nH]c1=O	0.55	0.145
COc1ccc(C2=NN(C(=O)CSc3nnc(CNC(=O)c4cccc(OC)c4)n3C)C(c3ccc(C)cc3)C2)cc1 (stereo not given)	.	-0.19
COc1ccc(C(=O)COC(=O)c2cc(Br)ccc2Cl)cc1	-1.5	-0.11
c1ccc(-n2ncc3c(N4CCOCC4)ncnc32)cc1	0.1	.
Cn1nc(-c2ccccc2F)c2cc(C(=O)Nc3ccc4c(c3)OCO4)sc21	0.2	-1.31
CC(=O)OC1(Cc2ccccc2)CN2CCC1c1ccccc12 (stereo not given)	2.6	-1.33
CN(C)CCNCc1cc2c(-c3cccc(F)c3)nn(-c3ccccc3)c2[nH]c1=O	-0.5	.
N#Cc1c(N)oc(-c2ccccc2)c1-c1ccccc1	0.55	3.97&3.58
CSc1ccccc1CNC(=O)NC12CC3CC(CC(C3)C1)C2	-0.75	0.78
Nc1nnc(CCS(=O)(=O)c2ccc(Br)cc2)s1	-1.6	0.985
O=C(NCc1cccc(OC(F)(F)F)c1)c1cc(-c2ccccc2)nc2ccccc12	.	3.33
CC(=O)Nc1ccccc1O[C@@H]1O[C@H](COC(C)=O)[C@@H](OC(C)=O)[C@H](OC(C)=O)[C@H]1NC(C)=O	.	0.5
CC1CCC(NC(=O)c2cc3c(s2)CSC3)CC1 (stereo not given)	0.2	1
COC(=O)C1=C(C(=O)OC)SC2(S1)C(C(=O)OC)=C(C(=O)OC)SC1=C2c2cc(C)cc(C)c2NC1(C)C	.	-0.6
CCc1ccc(/C=C2\C(=N)N3N=C(N4CCCC4)SC3=NC2=O)cc1	-0.9	0.555
COc1ccc(C(=O)Nc2sc3c(c2C(N)=O)CC(C)CC3)cc1OC (stereo not given)	0.3	i
COc1ccc(Br)cc1CNC(=O)c1oc2ccc3c(c2c1C)C(=O)CC(C)(C)O3	-0.35	0.64
Cn1nnnc1SCc1ccc(C(=O)Nc2ccc(Br)cc2)cc1	-0.45	0.68
O=C(Nc1ccc(Cl)cc1)c1sccc1Cl	-0.75	-0.39
C=C(C)Cn1c(CCn2c3ccccc3c3ccccc32)nnc1SCC(=O)OC	-0.85	7.75
COc1ccc(-c2noc(CNC(=O)CC(C)(C)C)n2)cc1	-0.8	-1.57
CNC(=O)COc1ccc(Oc2ccc(C)cc2)cc1	-0.25	-0.095
Cc1nccc2[nH]c(=O)c(C(=O)N3CCc4ccccc43)cc12	-0.55	-1.16
CCOC(=O)c1cc(C#N)c(Oc2ccc(Cl)cc2C)nc1-c1ccccc1	.	-0.13

# Ordered by count of non-hydrogen atoms (rising): part of the list above.
molecule	AID504770	Ba CapD inh
O=C(Nc1ccc(Cl)cc1)c1sccc1Cl	-0.75	-0.39
Cc1nccc2[nH]c(=O)c(C(=O)N3CCc4ccccc43)cc12	-0.55	-1.16
Cn1nnnc1SCc1ccc(C(=O)Nc2ccc(Br)cc2)cc1	-0.45	0.68
COC(=O)C1=C(C(=O)OC)SC2(S1)C(C(=O)OC)=C(C(=O)OC)SC1=C2c2cc(C)cc(C)c2NC1(C)C	.	-0.6

# Record cards (already shown). Order of values: AID504770 | Ba CapD inh
# Results for CC(=O)Nc1ccccc1O[C@@H]1O[C@H](COC(C)=O)[C@@H](OC(C)=O)[C@H](OC(C)=O)[C@H]1NC(C)=O = . | 0.5
# Results for O=C(Nc1ccc(Cl)cc1)c1sccc1Cl = -0.75 | -0.39
# Results for Nc1nnc(CCS(=O)(=O)c2ccc(Br)cc2)s1 = -1.6 | 0.985
# Results for COc1ccc(Br)cc1CNC(=O)c1oc2ccc3c(c2c1C)C(=O)CC(C)(C)O3 = -0.35 | 0.64
# Results for CNC(=O)COc1ccc(Oc2ccc(C)cc2)cc1 = -0.25 | -0.095

# Another view of 2 compounds above.
# Under each structure: AID504770 | Ba CapD inh
Cc1cc(NC(=O)NC(=O)c2cccs2)n[nH]1
  0.65 | 0.795
C=CCOC(=O)C1=C(C)NC(=O)NC1c1cn(-c2ccccc2)nc1-c1ccc(Br)cc1 (stereo not given)
  . | -0.025

# Next section:
molecule	AID504770	Ba CapD inh
CC(C)N1CCCC(CN)C1 (stereo not given)	-1	.
CCOC(=O)c1c(N)sc(C(=O)N2CCOCC2)c1C	1.05	-0.365
CC(C(=O)O)n1c(=S)[nH]c2ccccc2c1=O (stereo not given)	-0.05	.
CCc1cc(=O)oc2cc(O)cc(O)c12	0.05	40.9
COc1nc(NCCc2ccc(OC)c(OC)c2)nc(Nc2ccc(Cl)cc2)n1	-0.15	-0.225
Cc1n[nH]c(C)c1Sc1ccc(C(F)(F)F)cn1	-0.05	0.11
CN1C(=O)C2(OCC(CO)([N+](=O)[O-])CO2)c2ccccc21 (stereo not given)	.	0.275
O=C(N/N=C/c1ccc(Cl)c(F)c1)c1ccc2ccccc2c1	.	2.94
CS(=O)(=O)c1cc2cc(Cl)ccc2oc1=O	-0.6	11.8
Cc1cc2cc(CNS(=O)(=O)c3ccc(Cl)cc3)ccc2n1C	0	.
O=C(N=Nc1c(O)n(Cc2ccc3c(c2)OCO3)c2ccccc12)C1CC1(c1ccccc1)c1ccccc1 (stereo not given)	.	-0.3
CC1CCC(C)C(NC(=O)c2ccc(I)cc2)C1 (stereo not given)	2.15	-0.055
CS(=O)(=O)c1ccc(-n2cc(-c3ccc(C(=O)O)cn3)cn2)cc1	.	1.51
Cc1occc1C(=O)N/N=C/C=C/c1ccccc1	0	-1.68
CCC(C)(C)c1ccc(S(=O)(=O)NC2CCN(Cc3c(F)cccc3Cl)C2)cc1 (stereo not given)	.	-0.71
CSc1cccc2c(SC)cccc12	-0.9	11.5
CCCCc1cc(=O)oc2cc3oc4c(c3cc12)CCCC4	2.15	-0.795
